# GIRK2 act: opens human GIRK2 potassium channels | 63,000 compounds, 0.05% hits | AID 1259325 | HEK293-GIRK2 thallium flux, Thallos fluorescence | P48051 | calls only for hits at 25 µM;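 active = among the strongest 0.2% of first-round signals and kept after retests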;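 note: first round at about 10 µM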
# Target sequence (P48051 whole entry, looked up): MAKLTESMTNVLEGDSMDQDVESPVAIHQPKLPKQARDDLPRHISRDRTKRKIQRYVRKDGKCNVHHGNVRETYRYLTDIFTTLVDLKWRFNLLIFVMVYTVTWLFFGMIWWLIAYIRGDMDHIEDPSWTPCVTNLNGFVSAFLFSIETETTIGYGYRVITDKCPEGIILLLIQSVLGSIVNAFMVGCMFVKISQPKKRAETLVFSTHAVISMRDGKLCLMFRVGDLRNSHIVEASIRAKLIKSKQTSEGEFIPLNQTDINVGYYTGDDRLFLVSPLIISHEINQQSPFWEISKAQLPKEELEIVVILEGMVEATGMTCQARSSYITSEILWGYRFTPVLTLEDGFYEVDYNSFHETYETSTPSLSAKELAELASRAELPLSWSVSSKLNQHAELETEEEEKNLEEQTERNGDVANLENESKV
# Calls only; i = inactive. Some of the compounds tested (hit frequency here may not be typical).
SMILES,GIRK2 act
COc1cccc(C(=O)Nc2nc(CN3CCc4ccccc4C3)cs2)c1OC,i
COc1ccccc1OCCCn1c(C(C)O)nc2ccccc21 (configuration not stated),i
O/C(=C\c1nc2ccccc2[nH]1)c1cc(Cl)c(O)cc1O,i
COc1cccc(CNC(=O)Cn2nc(-c3cccs3)ccc2=O)c1,i
COc1ccc(-c2nnc3ccc(OCCNC(=O)C(C)(C)C)nn23)cc1OC,i
Cc1cc(S(=O)(=O)N2CCc3nc(NC(=O)C4CC4)sc3C2)c(Cl)cc1Cl,i
O=C(O)CC(CC(=O)Nc1ccc(CC(=O)N2CCOCC2)cc1)c1cccs1 (configuration not stated),i
O=C(Cn1cc(S(=O)(=O)N2CCCCCC2)ccc1=O)NCc1ccc2c(c1)OCO2,i
COC(=O)Cn1c(=O)c2c(nc3n(-c4ccc(C)c(C)c4)c(C)cn23)n(C)c1=O,i
O=C(NCCCn1ncccc1=O)c1ccc2ccccc2n1,i

# Continued; it opens with the three that closed the last part.
SMILES,GIRK2 act
O=C(Cn1cc(S(=O)(=O)N2CCCCCC2)ccc1=O)NCc1ccc2c(c1)OCO2,i
COC(=O)Cn1c(=O)c2c(nc3n(-c4ccc(C)c(C)c4)c(C)cn23)n(C)c1=O,i
O=C(NCCCn1ncccc1=O)c1ccc2ccccc2n1,i
CCOc1cc(C(=O)Nc2ccc3c(c2)N(C(=O)C(C)C)CCC3)cc(OCC)c1OCC,i
O=c1[nH]c2nc(NCc3cccs3)ncc2c(=O)n1C1CCCC1,i
O=C(CCn1cnc2ccccc2c1=O)Nc1nc2c(s1)COCC2,i
O=c1ccc(-c2nc(-c3cnccn3)no2)cn1Cc1noc(-c2ccccc2)n1,i
COc1ccc(C2C(C(=O)Nc3ccccc3OC)C(C)Nc3ncnn32)cc1 (configuration not stated),i
O=C(Nc1ccc(N2CCCS2(=O)=O)cc1)c1ccc2nsnc2c1,i
Cc1csc(N2C(=N)SCC2=O)n1,i
COc1ccc(N2CC(c3nc(-c4ccccc4Cl)no3)CC2=O)cc1OC (configuration not stated),i
O=C(NC1CCN(c2ccc(-c3ccccc3F)nn2)C1)c1ccoc1 (configuration not stated),i
Cc1nn(-c2nc3c(c(=O)n(CC(N)=O)c(=O)n3C)n2CCCc2ccccc2)c(C)c1C,i

# Entries above with four or more nitrogen atoms, in the order listed:
SMILES,GIRK2 act
COc1ccc(-c2nnc3ccc(OCCNC(=O)C(C)(C)C)nn23)cc1OC,i
COC(=O)Cn1c(=O)c2c(nc3n(-c4ccc(C)c(C)c4)c(C)cn23)n(C)c1=O,i
O=C(NCCCn1ncccc1=O)c1ccc2ccccc2n1,i
O=c1[nH]c2nc(NCc3cccs3)ncc2c(=O)n1C1CCCC1,i
O=C(CCn1cnc2ccccc2c1=O)Nc1nc2c(s1)COCC2,i
O=c1ccc(-c2nc(-c3cnccn3)no2)cn1Cc1noc(-c2ccccc2)n1,i
COc1ccc(C2C(C(=O)Nc3ccccc3OC)C(C)Nc3ncnn32)cc1 (configuration not stated),i
O=C(Nc1ccc(N2CCCS2(=O)=O)cc1)c1ccc2nsnc2c1,i
O=C(NC1CCN(c2ccc(-c3ccccc3F)nn2)C1)c1ccoc1 (configuration not stated),i
Cc1nn(-c2nc3c(c(=O)n(CC(N)=O)c(=O)n3C)n2CCCc2ccccc2)c(C)c1C,i

# New compounds follow:
SMILES,GIRK2 act
O=C(CN1CCc2nc(NC(=O)C3CC3)sc2C1)Nc1ccccc1C(F)(F)F,i
Cc1nc(-c2ccccc2Cl)sc1CNC(=O)COc1ccc(F)cc1,i
COc1ccc(CNC(=O)c2sc(-c3nnn(-c4cccc(OC)c4)c3C)nc2C)cc1,i
CCCN(CCC)S(=O)(=O)c1cc(C(C)C)c(C)cc1OC,i
CCS(=O)(=O)NCCCn1ccnc1-c1ccccc1,i
COc1ccc(NC(=O)C(=O)NCC2CCN(C3CCCC3)CC2)cc1OC,i
CCn1c(=O)c(C(=O)Nc2ccc(C)c(C)c2)c(O)c2ccccc21,i
O=C1OC2CC1N(C(=O)c1ccc(F)c(F)c1)C2 (configuration not stated),i
CCc1ccc(S(=O)(=O)N2CC(c3nc(-c4ccc[nH]c4=O)no3)C2)s1,i
O=C(CSC1CCCC1)N1C2CCC1CC(S(=O)(=O)c1ccccc1)C2 (configuration not stated),i
COc1ccc(S(=O)(=O)Nc2nc(C)c(C(=O)NCc3cccs3)s2)cc1,i
Cc1cc(NC(=O)C2CCN(C(=O)Cn3cnc4ccccc4c3=O)CC2)no1,i
O=C(NCC1CCN(C(=O)Oc2ccccc2)CC1)c1ccc(Cl)s1,i
COc1ccc(NC(=O)Cn2nc3c4cc(-c5cc(C)ccc5C)nn4ccn3c2=O)c(OC)c1,i
COc1cccc(C(=O)Nc2ccc(OC)c(N3CCCC3=O)c2)c1,i
CCOC(=O)Nc1ccc(C)cc1Br,i
O=C(Cn1cnc2ccccc2c1=O)Nc1cc(OCc2ccc3c(c2)OCO3)ncn1,i
COc1ccc(-n2c(C)c(C)n3c4c(=O)n(CCN5CCOCC5)c(=O)n(C)c4nc23)c(OC)c1,i
CCN(CC)C(=O)c1cnc2ccc(F)cc2c1S(=O)(=O)c1ccccc1C,i
Cc1ccc(NC(=O)CN2CCC(C(=O)NCCc3cccs3)CC2)c(C)c1,i
Cc1ccc(-n2nnc(-c3nc(-c4ccccc4)cs3)c2N)cc1,i
CCOC(=O)N1CCC(NS(=O)(=O)C2CC2)CC1,i
Cc1cccc(-n2c(=O)c3c(c4cc(C)ccc4n3C)n(CC(=O)Nc3c(C)cccc3C)c2=O)c1,i
Cc1cc(S(=O)(=O)NCCn2nc(-c3ccncc3)ccc2=O)ccc1F,i
Cc1nccn1-c1cc(NCCNS(=O)(=O)c2ccc(C(F)(F)F)cc2)ncn1,i
Cc1ccc(CNC(=O)c2cccc(-n3ccnc3SCC(=O)NCc3ccccc3)c2)o1,i
O=C(c1ccc2nsnc2c1)N1CCN(c2ccc(-n3ccnc3)nn2)CC1,i
Cc1cccc(NC(=O)Cn2cnc3nc(N4CCC(C(=O)N5CCCCC5)CC4)sc3c2=O)c1,i
O=C(CC1=C/C(=C\c2ccc(C(F)(F)F)cc2)c2ccc(F)cc21)NCc1ccccc1,i
O=C(Nc1nnc(C2CC(=O)N(c3ccccc3)C2)o1)c1ccc2c(c1)CCCC2 (configuration not stated),i
O=C1CC2(CCN(C(=O)c3ccc(-c4ccccc4)cc3)CC2)Oc2ccccc21,i
O=C(/C=C/c1ccccc1Cl)N1CCN(S(=O)(=O)C2CC2)CC1,i
CC(=O)c1ccc(N2CCN(C(=O)CCCCn3c(=O)[nH]c4ccccc4c3=O)CC2)cc1,i
COc1ccc(S(=O)(=O)CCC(=O)N(CCN(C)C)c2nc3cc(C)c(C)cc3s2)cc1,i
COc1ccc(CCn2c(-c3cccs3)nc3c(c(=O)c4ccccc4n3C)c2=O)cc1,i
COc1ccccc1-c1ccc(N2CCC(C(=O)NN3CCOCC3)CC2)nn1,i
COc1ccc2c(=O)c3c(=O)n(Cc4ccccc4)c(C(C)C)nc3oc2c1,i
O=C(/C=C/c1ccco1)Nc1ccc2c(c1)CN(S(=O)(=O)c1ccccc1)CC2,i
O=C(Cn1cccc(S(=O)(=O)N2CCCCC2)c1=O)Nc1ccccc1F,i
Cc1ccc(C(=O)Nc2c(C(=O)N3CCN(c4ccc(F)cc4)CC3)[nH]c3ccccc23)cc1,i
O=C(NCCc1ccoc1)C(c1ccccc1)c1ccccc1,i
COc1ccccc1CNC(=O)c1cn(-c2cc(N(C)C)ncn2)cn1,i
O=C(CN1CC(c2nc(-c3cccc(Cl)c3)no2)C1)Nc1ccc(C(F)(F)F)cc1,i
COC(=O)C1=CO[C@@H](O[C@@H]2O[C@H](CO[C@@H]3O[C@H](COC(=O)/C=C/c4ccc(O)cc4)[C@@H](O)[C@H](O)[C@H]3O)[C@@H](O)[C@H](O)[C@H]2O)[C@@H]2C(CO)=CC[C@H]12,i
CC(C)CCOc1ccc(N)cc1,i
O=C(NCC(O)c1ccc(C(F)(F)F)cc1)c1cc(C2CC2)on1 (configuration not stated),i
CCOCCn1c(=O)c2c(nc3n(-c4cccc(C)c4)c(C)cn23)n(C)c1=O,i
O=C(CSc1nc2ccccc2o1)Nc1ccc(-n2cnnn2)cc1,i
CCN(CC)C(=S)SSC(=S)N(CC)CC,i
O=C1c2oc3ccc(Cl)cc3c(=O)c2C(c2cccc(Br)c2)N1CCO (configuration not stated),i

# More entries
SMILES,GIRK2 act
COc1cc(C2OC(c3ccc(O)c(OC)c3)C(C)(O)C2C)ccc1O (configuration not stated),i
O=C(Nc1cccc(-c2ccn[nH]2)c1)c1ccc(Cn2ccnc2)cc1,i
CCCn1c(C2CC(=O)N(c3ccc(C)c(Cl)c3)C2)nc2ccccc21 (configuration not stated),i
O=C(c1ccc(Cl)c([N+](=O)[O-])c1)N(C(=O)N1CCCCC1)c1ccccc1,i
COc1ccccc1C(O)Cn1cc(C(=O)Nc2ccc3c(c2)OCCO3)nn1 (configuration not stated),i
CS(=O)(=O)Nc1cnc(N2CCN(c3ccccc3)CC2)nc1,i
Fc1cccc(CN2CCC(c3nnc(C(F)(F)F)o3)CC2)c1,i
Cc1cc(C(O)CCNC(=O)c2snnc2C)c(C)o1 (configuration not stated),i
O=C(c1cc(-c2ccc(F)cc2)c[nH]1)N1CCN(C/C=C/c2ccccc2)CC1,i
Cc1cc(C)c2c(n1)sc1c(=O)n(CC(=O)Nc3cc(Cl)ccc3C)cnc12,i
O=S(=O)(c1ccccc1)N(Cc1ccoc1)Cc1cccs1,i
N#Cc1nc(-c2ccc(COc3ccccc3)o2)oc1N1CCN(C(=O)c2ccco2)CC1,i
CC(O)CN1CCN(CC(=O)NCc2ccccc2Cl)CC1 (configuration not stated),i
COc1ccc(Cl)cc1NC(=O)c1ccc(OCc2nc(C3CC3)cs2)cc1,i
O=C(C1=C(O)C(=O)N(c2nncs2)C1c1ccccc1Cl)c1cccs1 (configuration not stated),i
CCOCCn1c(N2CCN(Cc3cccc4ccccc34)CC2)nc2c1c(=O)[nH]c(=O)n2C,i
Cc1cc(N2CCOCC2)n2nc(C)c(-c3ccccc3)c2n1,i
Cn1c(=O)c(C(=O)Nc2cccc(C(F)(F)F)c2)c(O)c2sccc21,i
O=C(CSc1ccccn1)N1CCOCC1,i
O=C1CN(/N=C\c2ccc([N+](=O)[O-])o2)C(=O)N1,i

# Continued, starting with the last 4 of the part before.
SMILES,GIRK2 act
Cc1cc(N2CCOCC2)n2nc(C)c(-c3ccccc3)c2n1,i
Cn1c(=O)c(C(=O)Nc2cccc(C(F)(F)F)c2)c(O)c2sccc21,i
O=C(CSc1ccccn1)N1CCOCC1,i
O=C1CN(/N=C\c2ccc([N+](=O)[O-])o2)C(=O)N1,i
COc1cccc(NC(=O)c2nnn(-c3ccc4noc(-c5ccc(Cl)cc5)c4c3)c2C)c1,i
O=c1ccc(-c2nc(C3CC3)no2)cn1Cc1nc(-c2ccc(F)c(Cl)c2)no1,i
COc1cccc(N2CC(c3nc4ccccc4n3Cc3ccc(Cl)cc3)CC2=O)c1 (configuration not stated),i
Cc1nc(-c2ccccc2Cl)sc1CNS(=O)(=O)/C=C/c1ccccc1,i
CCCCC(CC)CNC(=O)c1ccc(Cn2c(=S)[nH]c3cc4c(cc3c2=O)OCO4)cc1 (configuration not stated),i
O=S(=O)(c1ccccc1)c1nc(-c2cccs2)oc1N1CCCCC1,i
COc1ccc(CCNC(=O)c2cnn3c(-c4ccc(C(C)C)cc4)ccnc23)cc1OC,i
Cc1ccc(NC(=O)C2CCN(C(=O)NCc3cccs3)CC2)cc1F,i
O=c1c2cn[nH]c2nc(SCc2nc(-c3ccc(F)c(Cl)c3)no2)n1-c1ccccc1,i
CS(=O)(=O)N1CCN(C(=O)Cc2csc(Nc3ncccn3)n2)CC1,i
COc1ccc(S(=O)(=O)Nc2ccc3c(c2)N(C(=O)c2ccccc2)CCC3)cc1F,i
Cc1c(C(=O)NCCn2nc(-c3ccccn3)n(C)c2=O)cnn1-c1ccccc1,i
COC(=O)c1ccccc1NC(=O)Cn1cccc(S(=O)(=O)N2CCCCCC2)c1=O,i
O=C(NCCC(O)c1cccs1)C(=O)NCc1ccccc1Cl (configuration not stated),i
Cc1c([N+](=O)[O-])cc(S(=O)(=O)NCCOc2ccc(F)cc2)cc1[N+](=O)[O-],i
O=C(Cc1ccccc1Cl)Nc1ccc(-n2nnn(CC(=O)NC3CC3)c2=O)cc1,i
Cc1nc2ccccn2c1C(O)=C1C(=O)C(=O)N(CCN(C)C)C1c1cccnc1 (configuration not stated),i
O=C(Nc1cc(F)ccc1F)c1n[nH]nc1Nc1ccccc1,i
COc1ccc2c(=O)c3c(oc2c1)C(=O)N(CCCN(C)C)C3c1ccc(C(C)(C)C)cc1 (configuration not stated),i
COc1ccc(SCC2CCN(S(=O)(=O)c3ccc(C(C)=O)cc3)CC2)cc1,i
CC1(C)OCC2(CO1)CN(S(C)(=O)=O)C2,i
COc1cccc(CCNC(=O)c2csc(-c3cnccn3)n2)c1,i
Cc1ccc(N2CC(C)Cn3c2nc2c3c(=O)n(CCN3CCOCC3)c(=O)n2C)cc1C (configuration not stated),i
Cc1ccc(Cl)cc1NC(=O)CN1CCOCC1,i
Cc1nc(N2C(=O)C(O)=C(C(=O)c3cccs3)C2c2cccc(O)c2)sc1C (configuration not stated),i
CCc1cccc(OCC(O)Cn2c(N3CCC(C)CC3)nc3c2c(=O)[nH]c(=O)n3C)c1 (configuration not stated),i
O=C(Nc1cnc(Oc2ccccc2F)nc1)c1ccccc1C(F)(F)F,i
CC(C)S(=O)(=O)c1ccc(CC(=O)Nc2cnoc2)cc1,i
CC(C)CCN1C(=O)CCc2cc(NC(=O)NCc3ccccc3)ccc21,i
Cc1ccc(C(=O)NCCCn2ncccc2=O)cc1C,i
O=C(Cn1cccc(S(=O)(=O)N2CCCCC2)c1=O)Nc1ccc(Cl)c(Cl)c1,i
COc1cccc(C2c3c(oc4ccc(C)cc4c3=O)C(=O)N2C)c1 (configuration not stated),i
CCC(=O)Nc1ccc(Cn2cnc(C(=O)Nc3cccc(OC)c3)c2)cc1,i
NS(=O)(=O)c1ccc(NC(=O)CSc2nc(-c3cccc([N+](=O)[O-])c3)cs2)cc1,i
Cc1cc(C)cc(C(=O)N2CCN(S(=O)(=O)c3cc4c5c(c3)CCC(=O)N5CCC4)CC2)c1,i
Cc1ccc(OCC(O)Cn2c(NCCCO)nc3c2c(=O)[nH]c(=O)n3C)cc1C (configuration not stated),i
